Source: PubChem
AF4-AF9 inh: inhibitors of AF4 peptide binding to AF9, primary screen, biochemical, AlphaScreen, biotin-AF4 peptide, FLAG-AF9, single point | Protein AF-9 (Homo sapiens), P42568 | inhibition, % at 10 µM | hit rate 0.47% among 350,000 | AID 651704, 2012;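 active means every replicate reaching a set inhibition limit, whatever the replicate mean, cut at about 25% in these data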;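 further: 0% = plate neutral control median and 100% = total signal loss; the record names both 10 and 1 µM as test concentration; the first replicate is given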
rRNA inh HTS: reduced GFP signal of wild-type E. coli, primary screen, bacterial rRNA inhibitor project, GFP/RFP fluorescence, OD600, single point; E. coli WT GFP vs humanized-ribosome RFP mutants, 24 h; stronger effect = lower value; DMSO median 0, no signal -100; GFP signal change (wild-type ribosome), % (test concentration not listed); hit rate 1.6% among 350,000;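 active means significant combined selectivity score with lowered wild-type GFP, culture density cut under 30%, mutant RFP and density less affected; inactive means any of these conditions unmet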; further: one replicate is shown; some compounds called inactive have numbers as strong as hits
HNF4A DNA FP: change in binding of human HNF4A to DNA, primary screen, biochemical, fluorescence polarization, FITC-DNA. Hepatocyte nuclear factor 4-alpha (Homo sapiens), P41235. 1 h. activity change, % at 10 µM. hit rate 0.3% among 360,000; in the data active means activity change above about 30%, passing the limit was not always enough;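 further: controls were the assay level and a saturating level of protein; the project sought stronger binding though the title names inhibitors; some compounds called inactive have numbers as strong as hits; positive values seem to mean higher polarization but the record does not say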
Target sequence (P41235 whole entry, looked up): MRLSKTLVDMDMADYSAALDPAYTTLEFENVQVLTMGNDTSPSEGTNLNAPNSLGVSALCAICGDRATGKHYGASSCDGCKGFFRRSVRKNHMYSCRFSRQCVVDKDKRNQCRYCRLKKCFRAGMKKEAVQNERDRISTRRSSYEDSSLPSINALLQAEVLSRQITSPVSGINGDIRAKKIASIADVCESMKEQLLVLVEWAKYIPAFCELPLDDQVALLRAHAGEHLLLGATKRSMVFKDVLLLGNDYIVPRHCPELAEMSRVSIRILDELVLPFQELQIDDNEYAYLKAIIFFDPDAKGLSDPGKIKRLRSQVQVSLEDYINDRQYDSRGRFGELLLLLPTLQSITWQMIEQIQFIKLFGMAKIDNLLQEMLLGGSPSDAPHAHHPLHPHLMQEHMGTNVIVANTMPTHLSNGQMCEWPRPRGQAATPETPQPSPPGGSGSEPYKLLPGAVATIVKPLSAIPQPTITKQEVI
Vif A3G: inhibitors of Vif binding to APOBEC3G peptide, primary screen, biochemical, TR-FRET, GST-Vif 1-94, biotin-A3G peptide, dose response retest (AID 1117319) | Virion infectivity factor (Human immunodeficiency virus type 1 group M subtype B (isolate … | TR-FRET GST-Vif / biotin-A3G peptide binding; higher % means a stronger effect; test concentration not given here; strong numbers were not always called active | one-dose inhibition, %; IC50 in µM for titrated hits | hit rate 0.57% among 260,000;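 active means above the screen mean plus three standard deviations and confirmed in dose response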;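 further: Vif residues 1-94 fused to GST binding biotinylated APOBEC3G peptide 110-148; 0% = full assay without inhibitor and 100% = GST in place of GST-Vif; retest series ran down from 100 µM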
ALR inh: inhibitors of human ALR sulfhydryl oxidase, primary screen, biochemical, H2O2 detection, HRP-luminol luminescence, single point; FAD-linked sulfhydryl oxidase ALR (Homo sapiens), P55789; purified ALR, DTT oxidation; inhibition, % (concentration not given with the values); hit rate 3.8% among 290,000;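 active means mean and each replicate at 75% or more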;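 further: stock transfer was 7.5 nL into about 7.5 µL; 0% = neutral wells and 100% = wells with inactivated enzyme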
Target sequence (P55789 whole entry, looked up): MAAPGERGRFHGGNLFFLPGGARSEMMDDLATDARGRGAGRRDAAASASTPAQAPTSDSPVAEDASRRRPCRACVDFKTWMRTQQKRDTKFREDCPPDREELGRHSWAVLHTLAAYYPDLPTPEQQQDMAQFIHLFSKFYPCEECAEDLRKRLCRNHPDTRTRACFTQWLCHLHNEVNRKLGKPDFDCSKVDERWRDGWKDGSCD
FGF22 binding: binders of human FGF22 protein, primary screen, FGF22 synaptogenesis inhibitor project, biophysical, thermal shift, single point; recombinant FGF22 thermal shift, SYPRO orange fluorescence; percent of sucrose octasulfate shift, DMSO zero; calls only at 9.99 µM; hit rate 1.5% among 340,000; AID 651658, 2012;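 active means melting point raised past a set limit in the mean and every replicate; three in four hits are not shown here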
Target sequence (Q9HCT0 whole entry, looked up): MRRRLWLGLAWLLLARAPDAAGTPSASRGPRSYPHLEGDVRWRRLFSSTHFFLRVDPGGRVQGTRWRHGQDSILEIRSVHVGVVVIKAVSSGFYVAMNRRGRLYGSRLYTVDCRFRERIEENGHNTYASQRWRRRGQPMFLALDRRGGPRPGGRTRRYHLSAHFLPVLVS
E coli growth: E. coli growth inhibition, primary screen, OD600 | hit rate 0.21% among 330,000 | OD600 absorbance (test concentration not listed) | Escherichia coli growth, 23 h; stronger effect = lower value;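 active means OD600 absorbance below the run mean of sample wells minus 3.6 SD, in any replicate, cut at about 0.56 in these data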;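 further: stock transfer was 300 nL into about 60 µL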
rRNA inh HTS OD600: further read-out of rRNA inh HTS, marked with its call; OD600 change, %; measured here: OD600 growth;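 optical density of the mix in the first replicate; 0 = DMSO median and -100 = no signal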
rRNA inh HTS RFP: also measured in rRNA inh HTS; calls as there; RFP signal change, %; measured here: RFP humanized mutant strains;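 first replicate; 0 = DMSO median and -100 = no signal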
* = called active by the depositor; i = inactive; · = no result given; & = joins results of further samples. Not all compounds are listed; the hit share may differ from the screen's.

The line under a structure holds: AF4-AF9 inh | rRNA inh HTS RFP | E coli growth | FGF22 binding | Vif A3G | rRNA inh HTS OD600 | rRNA inh HTS | HNF4A DNA FP | ALR inh
1	COc1ccccc1-c1oc2ccccc2c1-c1ccccc1OC
    -2.0 | -12 | 0.72 | i | · | 12 | 2 | -3.1 | 1
2	CCC(=O)N1[C@@H]2c3ccc(-c4ccncc4)c(=O)n3C[C@H]1[C@H](CO)[C@H]2C(=O)NC1Cc2ccccc2C1
    -11 | -0.2 | · | i | · | 7 | -2 | · | ·
3	Cc1ccc(-n2ccnc(SCC(=O)NCCc3ccccc3)c2=O)cc1F
    -10 | 0.1 | 0.69 | · | 2% | 6 | -2 | -6.2 | ·
4	COc1ccccc1-c1ccccc1[C@H]1[C@@H](C#N)N(C(=O)C2CCC2)[C@@H]1CO
    -2.7 | 1.1 | · | i | · | 5 | -3 | · | ·
5	Cc1ccc(NC(=O)CSCC(=O)N(C)CCOc2ccc(Cl)cc2)cc1
    2.6 | 1.7 | 0.68 | i | -8% | -3 | -4 | -7.5 | ·
6	CC(C)CN(C(=O)COC(=O)C1CC1)c1c(N)n(Cc2ccccc2)c(=O)[nH]c1=O
    -1.7 | -1.8 | 0.69 | i | -7% | 8 | 7 | -4.9 | -1
7	COc1cc(NC(=O)COC(=O)c2ccccc2SCC(=O)N2CCCC2)cc(OC)c1
    -0.2 | 8.9 | 0.69 | · | 3% | -10 | -4 | 1.8 | -10
8	COC(=O)[C@@H]1ON2OCC(C)=C3CCCC[C@@]32[C@H]1C(=O)OC
    -1.6 | 2.6 | · | i | · | 18 | 10 | 0.1 | ·
9	COc1ccc(CCN2CC(C(=O)NCc3ccco3)CC2=O)cc1OC (centres undefined)
    · | · | 0.65 | · | 5% | · | · | -5.0 | 0
10	CCCC(C)(C)NC(=O)CCCCC(=O)NC(C)(C)CCC
    · | · | 0.68 | · | -3% | · | · | 3.3 | -4
11	CCOC(=O)c1c(NC(=O)COC(=O)CNC(=O)c2ccc(Cl)cc2Cl)sc(C(=O)N(C)C)c1C
    -0.9 | 0.7 | 0.64 | · | · | -2 | 15 | 1.4 | 1
12	O=C(CCCn1c(SCC(=O)NC2CCCCC2)nc2ccccc2c1=O)NCC1CCCO1 (centres undefined)
    · | · | · | · | -4% | · | · | -2.3 | -1
13	C[C@H]1CCCCO[C@H](CN(C)C(=O)NC2CCCCC2)[C@@H](C)CN([C@@H](C)CO)C(=O)c2cc(NS(=O)(=O)c3ccc(F)cc3)ccc2O1
    0.9 | -0.7 | · | i | · | -4 | -1 | · | ·
14	O=C(NC1CCCCC1)C1CCN(S(=O)(=O)c2cccc3cccnc23)CC1
    1.1 | -0.3 | 0.74 | i | -6% | 3 | 6 | 5.7 | -23
15	N#Cc1ncc(C(F)(F)F)cc1Sc1ccccc1N
    · | · | 0.77 | · | 6% | · | · | -0.2 | -5
16	NC(=O)c1ccccc1NC(=O)/C=C/c1ccc(Cl)cc1
    · | · | 0.7 | · | 37% | · | · | -0.1 | -5
17	COCCn1c(NCc2ccccc2)nc2c1c(=O)[nH]c(=O)n2C
    · | · | 0.74 | · | -3% | · | · | 0.1 | ·
18	C[C@H](CO)N1C[C@H](C)[C@H](CN(C)C(=O)NC2CCCCC2)Oc2c(NS(C)(=O)=O)cccc2C1=O
    -0.3 | 2.5 | · | i | · | 5 | -2 | · | ·
19	COc1ccc(S(=O)(=O)N2CCC(C(=O)NCCC(=O)NC3CC3)CC2)cc1
    -2.0 | 0.7 | 0.65 | i | · | 1 | 6 | 0.3 | 0
20	O=[N+]([O-])c1ccc(N=Nc2ccc(O)cc2O)cc1
    · | · | 0.7 | · | 28% | · | · | 3.7 | ·
21	CCC(=O)c1ccc(OCC(=O)NCCC2=CCCCC2)c(OC)c1
    1.6 | -4.2 | 0.7 | i | · | -23 | -8 | 0.8 | 0
22	CCOc1ccc(-c2ccc(C3=CC(=O)C[C@H](c4ccc(F)cc4)C3)cc2)cc1
    -1.7 | 2.7 | · | i | · | 15 | 23 | 0.7 | ·
23	Cn1nc(-c2ccccc2)cc1NC(=O)Nc1ccccc1F
    -0.3 | -2.3 | 0.66 | i | 20% | 0 | -7 | 2.7 | 2
24	CC(=O)C1=C(C)NC(=O)NC1c1ccc(Cl)cc1 (centres undefined)
    -2.2 | 6.8 | 0.68 | i | -5% | 6 | 0 | 0.0 | -1
25	CCCCNC(=S)NNC(=O)c1cc(C)on1
    -19 | -1.2 | 0.74 | i | 5% | -1 | -9 | 3.7 | 55
26	Cc1ccc(C)c(OCC(=O)N/N=C/c2c(C)nn(-c3ccccc3)c2Cl)c1C
    · | · | · | · | -10% | · | · | 0.5 | 0
27	Cn1cc([N+](=O)[O-])c(C(=O)NNC(=O)c2ccc([N+](=O)[O-])cc2)n1
    -7.5 | -1.2 | 0.69 | i | 14% | 5 | 2 | -0.1 | -6
28	CC(=O)N1CCc2cc(C(=O)CN3CCN(c4cccc(Cl)c4)CC3)ccc21
    -0.6 | -0.2 | 0.73 | i | 8% | 5 | -3 | -6.5 | ·
29	O=C(COC(=O)c1cccnc1)c1ccc(Cl)c(Cl)c1
    · | · | 0.71 | · | 22% | · | · | 0.6 | 29
30	O=C(CSc1ccc([N+](=O)[O-])cc1)Nc1ccccc1N1CCOCC1
    -1.0 | 6.2 | 0.7 | i | · | 3 | 4 | -0.3 | ·

Individual results from the entries so far.
Value for Cc1ccc(NC(=O)CSCC(=O)N(C)CCOc2ccc(Cl)cc2)cc1 in rRNA inh HTS: -4
Value for Cc1ccc(-n2ccnc(SCC(=O)NCCc3ccccc3)c2=O)cc1F in rRNA inh HTS RFP: 0.1
Value for Cc1ccc(C)c(OCC(=O)N/N=C/c2c(C)nn(-c3ccccc3)c2Cl)c1C in ALR inh: 0

The list continues.
The line under a structure holds: AF4-AF9 inh | rRNA inh HTS RFP | E coli growth | FGF22 binding | Vif A3G | rRNA inh HTS OD600 | rRNA inh HTS | HNF4A DNA FP | ALR inh
31	Cn1c(SCc2ccccc2F)nc2cccnc21
    · | · | 0.69 | · | -1% | · | · | -3.5 | -1
32	O=C(CCc1ccc(S(=O)(=O)NCCc2ccccc2)cc1)NCc1ccco1
    · | · | 0.82 | · | 15% | · | · | 4.7 | ·
33	Cc1cccc(NC(=S)N/N=C/c2c[nH]c3ccccc23)c1
    5.3 | · | · | i | 0% | · | · | 0.1 | ·
34	Cc1ccc(C(=O)NC2CCCN(c3ccc(C(F)(F)F)cn3)C2)cn1 (centres undefined)
    -6.7 | 4.6 | 0.67 | i | · | 19 | 14 | -1.9 | -4
35	CCCCN(CC)C(=O)c1cc2cc3ccc(Cl)cc3nc2o1
    0.2 | 4.7 | 0.61 | i | -4% | -14 | -16 | 5.9 | ·
36	CCOC(=O)C1=C(CSc2nccn2C)NC(=O)NC1c1ccc(OC)cc1 (centres undefined)
    · | · | 0.71 | · | 9% | · | · | 1.2 | -1
37	CCc1ccc2oc(C(=O)Nc3ccc(S(N)(=O)=O)cc3)c(C)c2c1
    -2.1 | -0.1 | 0.73 | i | -9% | 15 | 2 | -2.1 | 2
38	Cc1ccc(S(=O)(=O)N(Cc2ccccc2)c2ccccc2C(=O)NCc2cccnc2)cc1
    · | · | 0.69 | · | 2% | · | · | -4.6 | 1
39	CCC(C(=O)NCCc1ccccc1OC)n1nc(C)c2c(C)n(-c3ccccc3)nc2c1=O (centres undefined)
    -1.9 | -0.5 | 0.7 | i | · | -7 | -4 | 4.7 | -4
40	O=C(NNC1=NS(=O)(=O)c2ccccc21)c1ccccc1Cl
    -1.5 | 4.9 | 0.68 | i | · | 18 | 14 | 2.3 | -2
41	O=C(NCc1ccc2c(c1)OCO2)c1ccc(S(=O)(=O)C(F)F)cc1
    -0.4 | -6.7 | 0.71 | i | -11% | -1 | -3 | 3.7 | ·
42	O=C(CSCc1ccc(Cl)cc1)N1CCN(Cc2ccc3c(c2)OCO3)CC1
    · | · | 0.7 | · | 4% | · | · | -0.1 | -8
43	N#C[C@@H]1N[C@@H](CO)[C@@H]1c1ccc(-c2ccccc2F)cc1
    -1.2 | 0.0 | · | i | · | 1 | -8 | · | ·
44	Nc1nc(N2CCN(C(=O)c3ccco3)CC2)nc2ccccc12
    · | · | 0.67 | · | -4% | · | · | -0.8 | ·
45	O=C(O)c1cccc(NC2=Nc3cccc4cccc2c34)c1
    3.0 | -5.1 | 0.66 | i | 3% | 3 | 9 | 3.0 | 12
46	Cc1ccc(S(=O)(=O)Cn2nnnc2C(CC(C)C)N2CCN(C3CCCC3)CC2)cc1 (centres undefined)
    8.9 | -2.6 | 0.67 | i | · | -7 | 2 | 2.2 | 0
47	C=C(C)CNC(=S)Nc1nc2c(cc1C(=O)OCC)CCCC2
    -3.9 | · | 0.7 | i | -38% | · | · | 5.5 | ·
48	CC=Cc1ccc2n(c1=O)C[C@@H]1[C@@H](CO)[C@H](C(=O)Nc3nccs3)N(C(=O)CC)[C@H]21 (mixture of isomers)
    -3.6 | -0.6 | · | i | · | 4 | 0 | · | ·
49	Cn1c(CNC(=O)c2ccco2)nnc1SCC(=O)N1CCN(c2ccccc2)CC1
    -0.2 | -0.9 | 0.69 | i | · | 14 | 5 | 1.6 | 3
50	C=CCN(Cc1ccc(Cl)s1)C(=O)c1ccc(F)c(S(=O)(=O)N2CCOCC2)c1
    -1.0 | -1.5 | 0.71 | i | -5% | -65 | -26 | 1.1 | -5
51	C#CCNC(=O)C1=C[C@H](c2coc3ccccc3c2=O)C[C@H](OCc2ccc(CO)cc2)O1
    -2.6&3.6 | -3.2 | · | i | 3% | 3 | 1 | -0.1 | -6
52	CN(C)C(=O)COC(=O)c1cc(Cl)cc(Cl)c1N
    · | · | 0.65 | · | 1% | · | · | -0.7 | -50
53	CCN1CCCC1CNc1ccc(S(C)(=O)=O)cc1[N+](=O)[O-] (centres undefined)
    0.6 | -1.7 | 0.63 | i | · | 14 | 5 | -0.8 | -10
54	Cc1ccc(N(CC(N)=O)C2SC(=O)N(Cc3cccc(C(=O)O)c3)C2=O)cc1 (centres undefined)
    · | · | 0.73 | · | 3% | · | · | -0.2 | 19
55	CC1CCCC(C)N1C(=O)COC(=O)Cn1cnc2c1c(=O)n(C)c(=O)n2C (centres undefined)
    5.0 | -1.4 | 0.69 | i | -2% | 7 | 2 | 1.3 | -8
56	C[C@@H]1CN([C@@H](C)CO)C(=O)CCCn2cc(nn2)CO[C@H]1CN(C)S(=O)(=O)c1ccc2c(c1)OCCCO2
    -8.2&-0.9 | -1.3&-0.1 | · | i | · | 7&-4 | 10&-1 | 0.5 | ·
57	CCCCNC(=O)C1CCN(S(=O)(=O)c2cnc[nH]2)CC1
    · | · | 0.73 | · | -6% | · | · | 1.4 | -3
58	CCOC(=O)Cc1csc(NS(=O)(=O)c2ccc(C(F)(F)F)cc2)n1
    -3.6 | · | 0.68 | i | -1% | · | · | 1.8 | 3
59	CCCCNS(=O)(=O)c1ccc2nc(SCC(N)=O)[nH]c2c1
    1.2 | -1.9 | 0.68 | i | 23% | 7 | 11 | -0.3 | -1

Results in sequence from above.
HNF4A DNA FP for entries 54 to 57 → -0.2, 1.3, 0.5, 1.4
